Assay outcomes deposited in PubChem BioAssay by National Center for Advancing Translational Sciences (NCATS).
LASV entry inh – qHTS for Inhibitors of binding or entry into cells for Lassa Virus; AID 540256, 2011; Lassa virus pseudotype entry inhibition, cell reporter; control for the full effect not named in the record; 300,000 tested, 1.2% active; Potency, µM (top dose mostly 37.9 µM), without a hit: at the top dose activity change, negative = inhibition, hits mostly inhibitors; active means well fitted inhibition curve with a large enough effect; inconclusive means small, poorly fitted or top-dose-only effect, or effect the other way; inactive means flat fitted curve, though single readings scatter; tested in HEK293 cells; note: % is set by controls: 0 for no effect and ±100 for the full control effect; nearly all actives have a fitted effect of over 50% in size; luciferase read-out
Cruzain inh Det – qHTS Assay for Promiscuous and Specific Inhibitors of Cruzain (with detergent); Potency, µM, without a hit: max response, negative = inhibition, hits mostly inhibitors; 200,000 tested, 0.43% active; purified cruzain, Z-FR-AMC fluorescence, 0.01% Triton; AID 1478, 2009;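 note: plate controls were neutral wells for no effect and buffer without enzyme for full effect; nearly all actives have a fitted effect of over 40% in size; top concentration of the series not given in the record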
Target sequence (P25779 123-467 limits assumed): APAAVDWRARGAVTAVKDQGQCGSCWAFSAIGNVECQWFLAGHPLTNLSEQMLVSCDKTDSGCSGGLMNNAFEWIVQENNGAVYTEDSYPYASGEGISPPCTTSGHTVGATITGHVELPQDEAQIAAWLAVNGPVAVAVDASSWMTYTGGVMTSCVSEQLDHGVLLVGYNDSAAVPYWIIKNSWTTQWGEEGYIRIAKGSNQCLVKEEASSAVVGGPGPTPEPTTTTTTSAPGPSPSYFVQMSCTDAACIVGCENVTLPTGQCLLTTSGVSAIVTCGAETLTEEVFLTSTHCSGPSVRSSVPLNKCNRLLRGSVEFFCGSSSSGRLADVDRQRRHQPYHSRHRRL
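Compounds were screened in titration against cruzain (1.5 nM) with 0.01% Triton X-100 to counter colloidal aggregation. Activity was the AMC fluorescence increase over 60 s after adding 2 uM Z-FR-AMC at pH 5.5.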
RE007 growth inh – qHTS Assay for Inhibitors of the HIV-1 protein Vpr; S. pombe RE007 Vpr strain, BacTiter-Glo ATP luminescence, 24 h; control for the full effect not named in the record; Potency, µM (titrated, usually from 92.2 µM), without a hit: top-dose activity change, negative = less growth; 360,000 tested, 0.21% active; active = well fitted falling curve with a large enough effect; inconclusive = small, poorly fitted or top-dose-only effect; inactive = no such curve, though single readings can be large or run the other way;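 note: % is set by controls: 0 for no effect and ±100 for the full control effect; nearly all actives have a fitted effect of over 50% in size; the assay follows cell death caused by Vpr and the record does not say whether a fall means rescue or toxicity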
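Fission yeast strain RE007, carrying one chromosomally integrated HIV-1 vpr copy, was seeded at OD 0.01 in PMG+AL medium with 23 nL pinned compound. After 24 h at 30 °C and 99% humidity, viability was read by BacTiter-Glo luminescence.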
SARS PLpro yeast – qHTS of Yeast-based Assay for SARS-CoV PLP; Potency, µM (highest dose often 32.9 µM), inactives show at the highest dose activity, positive = growth rescue; 330,000 tested, 0.19% active; AID 485353, 2010; S. cerevisiae expressing SARS-CoV PLpro, growth rescue; control for the full effect not named in the record; active means well fitted rising curve with a large enough effect; inconclusive means small, poorly fitted or top-dose-only effect; inactive means no such curve, though single readings can be large or run the other way; note: 0% is about no effect; nearly all actives have a fitted effect of over 55% in size; growth read by luminescence after 48 h
Marburg entry inh – qHTS for inhibitors of binding or entry into cells for Marburg Virus; Marburg virus pseudotyped entry inhibition, cell reporter; control for the full effect not named in the record; about a third of the inactives were read at about 46 µM; Potency, µM (highest dose often 37.8 µM), for the others: at the highest dose activity change, negative = inhibition, most hits filed as inhibitors; 300,000 tested, 1.8% active; AID 540276, 2011; active = well fitted inhibition curve with a large enough effect; inconclusive = small, poorly fitted or top-dose-only effect, or effect the other way; inactive = flat fitted curve, though single readings scatter; tested in HEK293 cells; about a fifth of its hits are not listed in these tables; note: % is set by controls: 0 for no effect and ±100 for the full control effect; luciferase read-out
StopGo reporter – High Throughput Screening for Foot and Mouth Disease Virus Antivirals; human cells with a luciferase reporter of 2A StopGo recoding; control for the full effect not named in the record; Potency, µM (titrated, usually from 57.9 µM), for inactives: top-dose signal change, negative = less light; 410,000 tested, 1.2% active; AID 1159524, 2015; active = well fitted falling curve with a large enough effect; inconclusive = small, poorly fitted or top-dose-only effect; inactive = no such curve, though single readings can be large or run the other way; tested in HEK293T cells; note: % is set by controls: 0 for no effect and ±100 for the full control effect; nearly all actives have a fitted effect of over 45% in size; luciferase light after 4 h
Cruzain noTriton – qHTS Assay for Promiscuous and Specific Inhibitors of Cruzain (without detergent); Potency, µM, for the others: max response, negative = inhibition, usual class: inhibitors; 200,000 tested, 2.3% active; Cruzipain (Trypanosoma cruzi), P25779; purified cruzain, Z-FR-AMC fluorescence, no detergent;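 note: plate controls were enzyme without inhibitor for no effect and buffer without enzyme for full effect; nearly all actives have a fitted effect of over 40% in size; top concentration of the series not given in the record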
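Detergent-free condition (0.00005% Triton X-100) in acetate buffer pH 5.5 with DTT. 1.5 nM enzyme and compound were pre-mixed 15 min, then 2 uM Z-FR-AMC substrate added; reaction progress from fluorescence change between first and third reads (60 s).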
NS1 inh – qHTS Assay for Inhibitors of Influenza NS1 Protein Function; S. cerevisiae slowed by influenza A NS1, growth recovery by OD600; Potency, µM (titrated, usually from 46.1 µM), inactives show at the highest dose activity, positive = more growth; 270,000 tested, 0.4% active; active means well fitted rising curve with a large enough effect; inconclusive means small, poorly fitted or top-dose-only effect; inactive means no such curve, though single readings can be large or run the other way; note: nearly all actives have a fitted effect of over 50% in size
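Read-out: OD600 growth recovery of NS1-expressing budding yeast. Cells grown overnight at 30C in -URA glucose medium, washed, resuspended and diluted 1:100 in 2% galactose assay medium, pH 6.0. Same strain lacking NS1 served as positive control.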
* marks the source's active call; other numbers are inactive results; ? = inconclusive; . = no result given; & = joins results of further samples; [ ] = another dose, or the depositor's remark. Unless noted, calls come from the whole dose curve; as a rule, active = well fitted curve in the direction sought with a large enough effect; inconclusive = small, poorly fitted or top-dose-only effect, or another doubt; inactive = no such curve, though single readings can be large; an effect the other way counts as inactive or inconclusive. Potency is the fitted concentration of half-maximal effect.

SMILES	LASV entry inh	Cruzain inh Det	RE007 growth inh	SARS PLpro yeast	Marburg entry inh	StopGo reporter	Cruzain noTriton	NS1 inh
c1cncc(-c2nc3cc4ccccc4cc3[nH]2)c1	-23.6%	-9.0%	-27.6%	-16.7%	?	.	-11.5%	-75.2%
CNC(=O)NC(=O)CSc1nnc(-c2ccc(F)cc2)n1CC1CCCO1 (stereo not drawn)	8.0%	.	-9.0%	2.3%	?	-3.8%	.	.
Cc1nn(C(C)CC(=O)O)c(C)c1Br (stereo not drawn)	2.0%	14.5%	-4.1%	-5.7%	-8.1%	5.2%	-6.9%	13.2%
CCOC(=O)c1cnc2nc(C(F)(F)F)[nH]n2c1=O	8.4%	-0.3%	2.6%	2.2%	?	11.9%	1.0%	3.7%
Cc1cc(C(F)F)nn1CC(=O)NCc1ccc(Cl)cc1Cl	-28.4%	0.0%	-11.2%	10.0%	17.8%	-0.6%	-4.9%	9.9%
O=C(NNC(=S)NCc1ccccc1)c1ccc2c(c1)OCO2	15.2%	-1.8%	2.2%	-17.6%	5.8%	-2.1%	5.8%	2.0%
CCN(CC)C(=O)[C@H]1C[C@H](CC(=O)NC/C=C(\C)CCC=C(C)C)C(=O)N2CCc3c([nH]c4cc(CCC(=O)N(C)C)ccc34)[C@]12C	.	.	13.2%	-11.2%	0.1%	?	.	.
O=C(c1ccco1)N1CCN(S(=O)(=O)c2ccc(F)cc2)CC1	-0.2%	0.9%	7.4%	-0.6%	3.4%	7.4%	8.9%	-3.9%
CCC(NC(=O)NC1=NCCS1)(C(F)(F)F)C(F)(F)F	10.1%	0.2%	-18.4%	-1.4%	5.9%&5.9%	-0.1%	-6.9%	-4.5%
Cc1cccc(N2CCN(C(=O)Cn3c(=O)c4cccn4c4ccc(F)cc43)CC2C)c1 (stereo not drawn)	-13.0%[46.1 µM]	-0.9%	.	.	.	?	4.7%	.
Cc1sc2ncnc(N3CCC(C(=O)NNC(=O)COc4ccc(Br)cc4)CC3)c2c1C	7.0%	.	-11.1%	1.7%	-12.1%[46.1 µM]	?	.	.
COc1cc(NC(=O)NCCn2nnc3cc(S(=O)(=O)N(C)C)ccc32)cc(OC)c1OC	3.8%[46.1 µM]	1.7%	.	.	.	-19.5%	10.7%	.
COc1ccc2c(c1)CCC/C2=N\OC(=O)c1ccccc1F	11.9%[46.1 µM]	.	2.9%	-1.7%	2.3%[46.1 µM]	-10.1%	.	.
C[C@@H]1C(c2cccc(Cl)c2)=NN(c2ccc(Br)cc2)[C@H]1C(=O)N1CCOC1=O	.	-20.6%	-2.2%	-20.0%	.	-18.1%	?	.
Fc1ccc(-n2nnnc2-c2cnc(-c3cccs3)nc2C(F)(F)F)cc1	?	-10.7%	1.1%	-12.5%	?	15.8µM*	-2.3%	2.3%
COc1ccc(Cl)cc1S(=O)(=O)Nc1ncn[nH]1	23.5%	.	1.7%	-0.3%	?	14.4%	.	-1.6%
CCOc1ccc(-n2c(SCC(=O)NCc3ccco3)nc3c(c2=O)SCC3)cc1	0.9%	0.3%	4.8%	4.1%	-21.3%	14.4%	-24.2%	-8.1%
CC(C)c1ccc(C(CC(=O)O)N2Cc3ccccc3C2=O)cc1 (stereo not drawn)	.	.	0.8%	0.4%	.	-8.7%	.	3.6%
COc1cc(NC(=O)c2ccc(NC3=NC4CS(=O)(=O)CC4S3)cc2)cc(OC)c1OC (stereo not drawn)	.	.	2.7%	-0.5%	.	0.0%	.	-2.2%
O=S(=O)(Nc1cccc(-c2ccc(N3CCOCC3)nn2)c1)c1cc(Cl)ccc1Cl	?	.	-7.6%	0.4%	?	0.0%	.	.
Cc1sc2ncnc(SCc3ccco3)c2c1C	-6.2%	-8.7%	-11.7%	-9.2%	?	?	-17.0%	-59.0%
CC(C)C(NC(=O)C1CCCCC1)C(=O)NC1CCCC(C)C1C (stereo not drawn)	-11.6%	.	0.1%	0.1%	?	21.4%	.	-1.8%
C1=Nc2c(NCc3ccccc3)ncnc2Oc2ccccc21	?	-6.5%	-7.5%	-4.8%	?	0.2%	-14.2%	2.1%
O=c1oc2c(CN3CCN(CCO)CC3)c(O)ccc2cc1-c1ccccc1	22.4%[46.1 µM]	-0.2%	.	.	.	-5.4%	?	.
Cc1coc2cc3oc(=O)c(CCC(=O)NC4CC4)c(C)c3cc12	.	.	-1.3%	0.8%	.	0.2%	.	-10.4%
SMILES	LASV entry inh	Cruzain inh Det	RE007 growth inh	SARS PLpro yeast	Marburg entry inh	StopGo reporter	Cruzain noTriton	NS1 inh
CCCNC(=O)CN1C(=O)NC(Cc2c[nH]c3ccccc23)C1=O (stereo not drawn)	.	.	0.1%	0.3%	-7.0%[46.1 µM]	-7.2%	.	.
Cc1ccc(-n2nc3c(=O)n(CCCC(=O)NCc4ccc(F)cc4)nc(C)c3c2C)cc1	2.6%[46.1 µM]	-2.8%	-17.5%	-0.2%	.	?	-4.5%	-1.8%
CCOc1ccc(CCNC(=O)COC(=O)c2ccc(OC)c(OC)c2OC)cc1OCC	.	.	-1.0%	1.8%	1.9%[46.1 µM]	-10.2%	.	.
CCOc1ccc(N2C(=O)CC(Sc3nc(CC(C)C)ccc3C#N)C2=O)cc1 (stereo not drawn)	0.1%	.	0.3%	-1.3%	-20.0%[46.1 µM]	-8.7%	.	5.1%
COc1ccc(C(=O)/C=C/Nc2cc(C)ccn2)cc1	?	.	-12.8%	-2.5%	1.26µM*	-46.1%	.	-70.8%
S=c1[nH]nc(COc2ccc(Cl)cc2)n1C1CCCCC1	-0.5%	-6.7%	1.9%	-1.1%	-12.0%	.	-8.8%	12.2%
NC(=S)COc1ccccc1	?	.	-2.1%	0.1%	?	9.8%	.	-9.5%
CCOc1cc2c(cc1OCC)-n1cccc1C(c1ccc(F)cc1)NC2 (stereo not drawn)	.	.	6.0%	-0.5%	.	?	.	-0.6%
COc1ccc(OC)c(Cc2nnc(CCC(=O)N3CCCCCC3)o2)c1	12.3%[46.1 µM]	.	-18.4%	0.0%	?	38.9%[activator]	.	0.4%
CC1CCN(Cc2ccc(-c3nnn(CC(=O)Nc4ccccc4Cl)n3)cc2)CC1	-1.1%	.	-2.1%	-0.6%	?	-19.5%	.	1.7%
CN(C)c1ccc(/C=C(/NC(=O)c2ccccc2)C(=O)N2CCCC2)cc1	.	.	-18.2%	-0.6%	11.5%[46.1 µM]	42.8%[activator]	.	4.7%
COc1nc(-c2ccccc2)ccc1-c1noc(-c2ccccc2F)n1	-6.2%	2.6%	-21.7%	1.4%	1.4%	37.6%[activator]	8.2%	-6.7%
CCOc1cc(CNCc2ccccn2)cc(Cl)c1OC	-16.1%[46.1 µM]	.	15.4%	-0.1%	-4.7%[46.1 µM]	-13.9%	.	-2.2%
O=Cc1ccc(N2CCCC2)c(F)c1	-1.2%	-1.7%	-23.0%	1.6%	-3.8%	21.1%	-6.6%	-88.6%
Cc1ccc(NC(=O)C2(N3CCC3=O)CCCCC2)cc1	-13.6%	.	1.0%	-0.3%	3.0%[46.1 µM]	14.9%	.	3.1%
CCN(CC(=O)Nc1cccc(Br)c1)Cc1nc2ccccc2c(=O)[nH]1	6.7%	-2.2%	-12.2%	?	26.7%	-8.2%	-1.2%	2.7%
COc1ccc(N(C)S(=O)(=O)c2cccc(C(=O)NC3CCCC(C)C3C)c2)cc1 (stereo not drawn)	?	.	1.0%	-0.2%	?	-8.6%	.	.
CCOC(=O)N1CCC(NC(=O)c2ccc3c(c2)N(Cc2cc(C)ccc2C)C(=O)c2ccccc2S3(=O)=O)CC1	-21.9%[46.1 µM]	-1.7%	.	.	?	18.1%	?	.
COc1ccc(/C=C/c2c([N+](=O)[O-])c(=O)n(C)c(=O)n2C)cc1OC	12.7%	5.2%	7.0%	-8.4%	?	.	8.9%	0.5%
CC(C)(C)c1ccc(C2(C)NC(=O)NC2=O)cc1 (stereo not drawn)	-21.3%[46.1 µM]	.	-7.3%	-1.0%	-0.8%[46.1 µM]	0.0%	.	-10.8%
CCOc1ccc(OCCN(C)Cc2ccccc2)cc1	-23.3%	1.0%	5.3%	5.1%	?	4.2%	7.2%	-2.8%
CCCN(C(=O)CSc1nc2ccccc2n1CC)C1CCS(=O)(=O)C1 (stereo not drawn)	2.7%[46.1 µM]	.	-18.2%	1.3%	-3.8%[46.1 µM]	-2.4%	.	19.7%
CCSc1nnc(-c2ccc(S(=O)(=O)N3CCOCC3)cc2)n1CC1CCCO1 (stereo not drawn)	2.5%	-0.1%	17.4%	1.2%	?	23.4%	0.4%	-0.7%

Random excerpt: 6 entries already listed, in no set order.
SMILES	LASV entry inh	Cruzain inh Det	RE007 growth inh	SARS PLpro yeast	Marburg entry inh	StopGo reporter	Cruzain noTriton	NS1 inh
COc1ccc(C(=O)/C=C/Nc2cc(C)ccn2)cc1	?	.	-12.8%	-2.5%	1.26µM*	-46.1%	.	-70.8%
COc1ccc(OC)c(Cc2nnc(CCC(=O)N3CCCCCC3)o2)c1	12.3%[46.1 µM]	.	-18.4%	0.0%	?	38.9%[activator]	.	0.4%
O=Cc1ccc(N2CCCC2)c(F)c1	-1.2%	-1.7%	-23.0%	1.6%	-3.8%	21.1%	-6.6%	-88.6%
CCOc1cc2c(cc1OCC)-n1cccc1C(c1ccc(F)cc1)NC2 (stereo not drawn)	.	.	6.0%	-0.5%	.	?	.	-0.6%
COc1ccc(N(C)S(=O)(=O)c2cccc(C(=O)NC3CCCC(C)C3C)c2)cc1 (stereo not drawn)	?	.	1.0%	-0.2%	?	-8.6%	.	.
S=c1[nH]nc(COc2ccc(Cl)cc2)n1C1CCCCC1	-0.5%	-6.7%	1.9%	-1.1%	-12.0%	.	-8.8%	12.2%
